Rce1 inh: yeast Ras-converting enzyme inhibition | Q03530 | yeast membranes, quenched prenylated peptide cleavage fluorescence | calls only | hit rate 0.27% among 290,000;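 active means fall in fluorescence gain of 50% or more versus controls, with final raw signal at or below 3038400; inconclusive means same 50% fall but final raw signal above 3038400; inactive means fall in fluorescence gain under 50%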;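 further: plate controls were neutral control wells for no effect and wells lacking membranes for full effect; tested at 10 µM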
Target sequence (Q03530 whole entry, looked up): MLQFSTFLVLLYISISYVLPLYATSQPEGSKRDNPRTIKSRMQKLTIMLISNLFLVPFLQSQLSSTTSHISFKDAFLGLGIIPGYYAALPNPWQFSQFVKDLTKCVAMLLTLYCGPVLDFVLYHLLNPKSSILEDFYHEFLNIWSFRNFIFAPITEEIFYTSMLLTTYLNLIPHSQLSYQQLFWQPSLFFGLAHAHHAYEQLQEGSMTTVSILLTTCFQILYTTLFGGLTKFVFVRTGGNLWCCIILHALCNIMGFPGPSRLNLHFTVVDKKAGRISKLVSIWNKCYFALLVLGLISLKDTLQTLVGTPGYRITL
Yeast UUG start: alters start codon recognition fidelity in yeast | activity score, % at 18.7 µM | hit rate 0.13% among 350,000 | S. cerevisiae UUG-firefly luciferase reporter, luminescence/redox ratio;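 active means replicate mean at a twofold rise or more, about +100% in these data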;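 further: firefly luciferase made from a UUG start codon reports start codon fidelity; reporter light over untreated wells divided by growth signal over untreated wells; some hits fall short of that in this replicate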
Env fusion inh: inhibitors of HIV Env-mediated cell fusion. HeLa-JRFL Env/CEM21 cell fusion, luciferase. inhibition, % at 12.3 µM. hit rate 1.1% among 360,000. AID 651610;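 active means mean replicate inhibition score of at least 50 and every replicate individually at or above 50; inconclusive means only one of the two criteria met; inactive means mean below 50 and not all replicates reaching 50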;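 further: 0% = plate neutral controls and 100% = maraviroc near 300 nM; one replicate is shown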
PABP FP inh: PABP-poly(A) binding inhibition; P11940; PABP-poly(A) RNA binding, fluorescence polarization; inhibition, % at 35 µM; hit rate 1% among 290,000;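 active means 50% or more with normal probe brightness, or confirmed in later tests; inconclusive means above 50% with abnormal brightness, or retests that disagree; inactive means below 50% or failed in later tests; about a fifth of its hits are not listed in these tables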;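 further: calls also rest on retests at 20 µM and on dose response follow-up; controls were probe without protein and protein plus probe with vehicle; some compounds called inactive have numbers as strong as hits; many hits fall short of the cut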
Target sequence (P11940 whole entry, looked up): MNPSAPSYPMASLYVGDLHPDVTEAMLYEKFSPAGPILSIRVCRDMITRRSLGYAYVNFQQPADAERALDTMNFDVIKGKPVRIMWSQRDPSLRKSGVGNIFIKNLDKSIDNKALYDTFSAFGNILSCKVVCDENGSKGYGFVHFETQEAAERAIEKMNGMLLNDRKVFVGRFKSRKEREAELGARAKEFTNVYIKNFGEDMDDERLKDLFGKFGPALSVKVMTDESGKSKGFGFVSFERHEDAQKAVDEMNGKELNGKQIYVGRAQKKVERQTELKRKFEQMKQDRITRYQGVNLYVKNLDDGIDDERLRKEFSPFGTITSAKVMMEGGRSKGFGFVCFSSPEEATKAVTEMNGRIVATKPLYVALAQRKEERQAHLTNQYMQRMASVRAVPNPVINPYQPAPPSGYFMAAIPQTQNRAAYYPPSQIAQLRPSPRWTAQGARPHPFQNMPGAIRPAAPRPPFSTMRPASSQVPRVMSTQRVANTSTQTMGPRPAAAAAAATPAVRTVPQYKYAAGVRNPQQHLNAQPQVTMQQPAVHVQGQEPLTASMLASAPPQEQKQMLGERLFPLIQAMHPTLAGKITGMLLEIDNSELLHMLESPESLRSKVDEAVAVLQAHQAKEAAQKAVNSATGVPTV
CSC inhib: cancer stem cell inhibition | hit rate 1.1% among 300,000 | cancer stem cell-like cells viability, luminescence | AID 2717 | inhibition, % at 7.5 µM;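 active means mean at 75% or more and at least half the replicates too; inconclusive means mean and replicates disagree; tested in HMLE shEcad cells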;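 further: 0% = median of negative and 100% = median of positive control wells; the first replicate is given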
MT1-MMP act inh: MT1-MMP (human) activation inhibition. HT1080 RFP-PRO-GFP cells, GFP/RFP ratio fluorescence, overnight; percent of plate control window, DMSO zero. P50281. AID 651647. GFP/RFP ratio change, % at 20 µM. hit rate 0.061% among 360,000;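 active means GFP/RFP ratio change of at least 30% with cell ATP level not reduced by more than half and red fluorescence within 50% of control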; further: strong numbers were not always called active
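Assay system: HT1080 cells carrying an RFP-PRO-GFP reporter | Dosing: Single dose of 20 µM compound, 1% DMSO final | Incubation: Cells overnight before dosing, compound overnight, 37 °C, 5% CO2 | Evaluation: GFP/RFP fluorescence ratio | Control set: DMSO and RFP-L50D-GFP cell wells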
eIF4H FP inh: inhibitors of RNA binding by human eIF4H | inhibition, % at 35 µM | Q15056 | eIF4H fluorescence polarization binding assay | AID 2012 | hit rate 0.94% among 290,000;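 active means 50% or more with normal probe brightness, or confirmed in later tests; inconclusive means above 50% with abnormal brightness, or retests that disagree; inactive means below 50% or failed in later tests; about a fifth of its hits are not listed in these tables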;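 further: calls also rest on retests at 20 µM and on dose response follow-up; 0% = protein and probe with vehicle and 100% = probe without protein; strong numbers were not always called active; many hits fall short of the cut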
eIF4H FP inh retest: recorded beside eIF4H FP inh, whose call it bears; inhibition, %; compound at 20 µM; confirmation average;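 mean of two retest wells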
PABP FP inh retest: also measured in PABP FP inh; calls as there; inhibition, %; compound at 20 µM; confirmation repeats;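 mean of two retest wells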
MT1-MMP act inh RFP: recorded beside MT1-MMP act inh, whose call it bears; RFP signal change, %; measured here: RFP expression control read;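 0 = vehicle wells; hits needed this value within 50% of zero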
* hit, by the source's call.

For NC(=Nc1ccc(N)cc1)C(N)=Nc1ccc(N)cc1 the results were Rce1 inh inactive, Env fusion inh -0.5, PABP FP inh 44.8, CSC inhib -5.0, MT1-MMP act inh 8.1, eIF4H FP inh inconclusive and MT1-MMP act inh RFP 4.8.
Screening O=C(C[n+]1ccc(/C=N/O)cc1)NC(=O)Nc1ccccc1 returned Yeast UUG start -7.0, Env fusion inh -4.9, CSC inhib -15.3, MT1-MMP act inh -1.3 and MT1-MMP act inh RFP 2.6.
For Cc1cc(/C=C2/C(=O)N(C)C(=S)N2C)c(C)n1C1CC1 the results were Yeast UUG start -6.5, Env fusion inh -82.3, PABP FP inh -12.3, CSC inhib 6.7, MT1-MMP act inh -14.5, eIF4H FP inh 31.7 and MT1-MMP act inh RFP 7.3.
For CN1CCCN(C(=O)c2cccc(Br)c2)CC1 the results were Rce1 inh inactive, Yeast UUG start -12.3, Env fusion inh -25.3, PABP FP inh 20.6, CSC inhib -12.7, MT1-MMP act inh 1.5, eIF4H FP inh 46.2 and MT1-MMP act inh RFP 1.9.
O=c1cc[nH]c2cc(C(F)(F)F)ccc12 was read as Rce1 inh inactive, Yeast UUG start 0.7, PABP FP inh -7.3, MT1-MMP act inh -4.2, eIF4H FP inh -9.8 and MT1-MMP act inh RFP -2.9.
For CCOC(=O)CC(C#N)c1c[nH]c2ccccc12 (stereo unspecified) the results were Rce1 inh inactive, Yeast UUG start -8.8, Env fusion inh -26.6, PABP FP inh -13.0, CSC inhib -8.4, MT1-MMP act inh -1.4, eIF4H FP inh -18.9 and MT1-MMP act inh RFP -0.8.
Screening CC/C(=N\Nc1nncc2ccccc12)c1ccc(F)cc1 returned Rce1 inh inactive, Yeast UUG start -0.3, Env fusion inh -115.4, PABP FP inh 4.9, CSC inhib 0.4, MT1-MMP act inh -3.1, eIF4H FP inh -18.2 and MT1-MMP act inh RFP -3.7.
For Cc1noc(C(=O)NCc2cccnc2)c1Cl the results were Rce1 inh inactive, Yeast UUG start -3.3, Env fusion inh -6.2, PABP FP inh -10.2, CSC inhib -7.9, MT1-MMP act inh -3.4, eIF4H FP inh 0.1 and MT1-MMP act inh RFP 0.3.
`COC(=O)c1ccc2c(c1)NC(=O)c1ccccc1S2` gave Rce1 inh inactive, Yeast UUG start -17.2, Env fusion inh 18.7, PABP FP inh -3.7, CSC inhib -21.1, MT1-MMP act inh 2.6, eIF4H FP inh -2.3 and MT1-MMP act inh RFP 6.5.
O=C1CN(C(=O)c2cnccn2)c2ccccc2N1 was read as Rce1 inh inactive, Yeast UUG start -20.1, Env fusion inh -28.5, PABP FP inh -1.6, CSC inhib -21.0, MT1-MMP act inh -0.5, eIF4H FP inh 10.6 and MT1-MMP act inh RFP 4.7.
Screening O=C(COC(=O)Cc1ccc(F)cc1)NC1CCCC1 returned Rce1 inh inactive, Yeast UUG start -4.3, CSC inhib -10.0, MT1-MMP act inh -0.9 and MT1-MMP act inh RFP 0.0.
`c1ccc2c(c1)ncn2CCCCOc1ccc2c(c1)CCC2` gave Rce1 inh inactive, Yeast UUG start -5.1, Env fusion inh 87.7*, PABP FP inh 6.0, CSC inhib 0.1, MT1-MMP act inh 1.1, eIF4H FP inh 2.3 and MT1-MMP act inh RFP -16.1.
O=C(Nc1cccc2ccccc12)c1cn(-c2ccccc2)nc1-c1cccs1 was read as Rce1 inh inactive, PABP FP inh -10.1, CSC inhib 8.2, MT1-MMP act inh -6.4, eIF4H FP inh 0.1 and MT1-MMP act inh RFP -6.2.
For CC(=O)c1cc(C)ccc1OC(=O)CCN1C(=O)C2C3c4ccccc4C(c4ccccc43)C2C1=O (stereo unspecified) the results were Rce1 inh inactive, Yeast UUG start 3.7, Env fusion inh 14.1, PABP FP inh -9.0, CSC inhib -13.0, MT1-MMP act inh 5.6, eIF4H FP inh -15.6 and MT1-MMP act inh RFP 3.8.
C=CCn1c(SCC(=O)NCC(=O)OCC)nnc1-c1cccc(OC)c1 was read as Rce1 inh inactive, Yeast UUG start -16.6, PABP FP inh -2.3, CSC inhib 2.6, MT1-MMP act inh -2.7, eIF4H FP inh -0.4 and MT1-MMP act inh RFP 1.4.
Screening O=C(CC1SC(N2CCCCC2)=NC1=O)Nc1cccc(C(=O)NCc2ccccc2)c1 (stereo unspecified) returned Yeast UUG start 1.7, Env fusion inh 0.9, CSC inhib -12.0, MT1-MMP act inh 11.2 and MT1-MMP act inh RFP -3.6.
For COc1ccc(CCC(=O)OCC(=O)c2ccc(C)cc2)cc1 the results were Rce1 inh inactive, Yeast UUG start -10.7, Env fusion inh -21.6, PABP FP inh 16.3, CSC inhib 7.1, MT1-MMP act inh 7.0, eIF4H FP inh 8.3 and MT1-MMP act inh RFP 8.8.
Screening CCc1nc2ccccc2n1Cc1ccc(F)cc1 returned Rce1 inh inactive, Env fusion inh -2.8, PABP FP inh 3.3, CSC inhib 9.1, MT1-MMP act inh 0.3, eIF4H FP inh 5.6 and MT1-MMP act inh RFP 0.3.
COc1ccc(C2C(C(=O)Nc3ccccc3OC)=C(C)Nc3ncnn32)cc1 (stereo unspecified) was read as Rce1 inh inactive, Yeast UUG start -17.9, Env fusion inh -11.7, PABP FP inh 3.0, CSC inhib -3.5, MT1-MMP act inh -0.2, eIF4H FP inh -2.4 and MT1-MMP act inh RFP 3.4.
For COC(=O)c1cc(NC(=O)c2ccco2)ccc1N1CCOCC1 the results were Rce1 inh inactive, Yeast UUG start -19.4, Env fusion inh 5.8, PABP FP inh 0.1, CSC inhib -12.7, MT1-MMP act inh 2.1, eIF4H FP inh -9.6 and MT1-MMP act inh RFP 3.4.
`CCCCN1Cc2cc(C(=O)c3cc(OC)ccc3O)cnc2NC1=O` gave Rce1 inh inactive, Yeast UUG start -6.3, Env fusion inh -3.7, PABP FP inh -7.4, CSC inhib 4.3, MT1-MMP act inh -1.2, eIF4H FP inh -9.7 and MT1-MMP act inh RFP 2.7.
`Cc1cccc(NC(=O)COC(=O)CCCC2=NS(=O)(=O)c3ccccc3N2)c1` gave Rce1 inh inactive, Yeast UUG start 14.1, Env fusion inh -7.9, CSC inhib -9.9, MT1-MMP act inh 2.6 and MT1-MMP act inh RFP 2.8.
`Cc1nc(C)c(C(=O)C2=C(O)C(=O)N(CCN(C)C)C2c2ccco2)s1` (stereo unspecified) gave Rce1 inh inactive, Env fusion inh 3.3, PABP FP inh -2.3, MT1-MMP act inh 1.1, eIF4H FP inh -4.3 and MT1-MMP act inh RFP 2.4.
`O=c1[nH]n(-c2ccccc2)c(=O)c2ccccc12` gave Yeast UUG start -14.7, Env fusion inh -17.6, PABP FP inh -2.4, CSC inhib 10.9, MT1-MMP act inh 0.0, eIF4H FP inh -5.8 and MT1-MMP act inh RFP -3.3.
`Cc1cc(C)n(Cc2cnc(N3CCOCC3)s2)n1` gave Rce1 inh inactive, Yeast UUG start -4.0, Env fusion inh 2.3, PABP FP inh 55.0*, MT1-MMP act inh 2.7, eIF4H FP inh -7.9*, eIF4H FP inh retest 106.9*, PABP FP inh retest 89.9* and MT1-MMP act inh RFP -1.2.
`O=Cc1ccc(OCCCOc2cccc3cccnc23)cc1` gave Rce1 inh inactive, Yeast UUG start -30.3, Env fusion inh 1.8, PABP FP inh -11.4, CSC inhib -16.4, MT1-MMP act inh 0.5, eIF4H FP inh 7.2 and MT1-MMP act inh RFP -0.3.
`COc1ccc2cc(C3(C)NC(=O)N(CC(=O)NCCC4=CCCCC4)C3=O)ccc2c1` (stereo unspecified) gave Rce1 inh inactive, Yeast UUG start 5.5, Env fusion inh -10.8, PABP FP inh 3.6, CSC inhib 4.3, MT1-MMP act inh 6.6, eIF4H FP inh -12.3 and MT1-MMP act inh RFP -0.3.
`CCc1ccccc1NC(=O)CN(c1cccc(OC)c1)S(C)(=O)=O` gave Rce1 inh inactive, Env fusion inh -16.3, PABP FP inh -3.9, CSC inhib -8.1, MT1-MMP act inh -2.7, eIF4H FP inh 5.1 and MT1-MMP act inh RFP -2.0.
Screening CC(=O)N1CC(C)Sc2ccc(S(=O)(=O)NCc3ccc(Cl)cc3)cc21 (stereo unspecified) returned Rce1 inh inactive, Yeast UUG start -1.3, Env fusion inh 18.5, PABP FP inh -5.4, CSC inhib -8.0, MT1-MMP act inh -4.2, eIF4H FP inh -14.0 and MT1-MMP act inh RFP -21.8.
For C=CCn1c(Cc2c(C)[nH]c3ccccc23)nnc1SCC(=O)NCc1ccc(F)cc1 the results were Rce1 inh inactive, Yeast UUG start -11.5, PABP FP inh -9.2, CSC inhib -16.8, MT1-MMP act inh -1.1, eIF4H FP inh 23.5 and MT1-MMP act inh RFP -8.1.
`CCN(CC)C(=O)COc1c(-c2ccco2)oc2ccccc2c1=O` gave Rce1 inh inactive, Yeast UUG start -9.0, Env fusion inh -2.2, PABP FP inh -7.6, CSC inhib -2.2, MT1-MMP act inh -4.3, eIF4H FP inh 18.0 and MT1-MMP act inh RFP 0.5.
Screening Cc1ccc(S(=O)(=O)NC(=O)C2(C)CCN2C(=O)Cc2ccc(Cl)cc2Cl)nc1 (stereo unspecified) returned Yeast UUG start 2.1, Env fusion inh -0.8, MT1-MMP act inh -1.4 and MT1-MMP act inh RFP -0.3.
Screening CCOc1cc(CNCCc2ccc(S(N)(=O)=O)cc2)cc(Cl)c1OCc1ccccc1 returned Rce1 inh inactive, Yeast UUG start -4.2, PABP FP inh -5.5, CSC inhib 17.5, MT1-MMP act inh -4.0, eIF4H FP inh -7.1 and MT1-MMP act inh RFP -12.1.
`COc1ccc(S(=O)(=O)N(CC(=O)N2CCOCC2)c2ccc(F)cc2)cc1OC` gave Rce1 inh inactive, Yeast UUG start -5.2, Env fusion inh -26.6, PABP FP inh 9.8, CSC inhib -12.6, MT1-MMP act inh -2.4, eIF4H FP inh -4.8 and MT1-MMP act inh RFP 2.0.
For Cc1ccc(S(=O)(=O)N2CCCc3cc(NC(=O)c4c(F)cccc4F)ccc32)cc1 the results were Rce1 inh inactive, Yeast UUG start -14.6, Env fusion inh 7.1, PABP FP inh 3.6, CSC inhib -8.3, MT1-MMP act inh 2.1, eIF4H FP inh -7.2 and MT1-MMP act inh RFP -7.0.
N#Cc1ccc(COC(=O)C2CC(=O)N(CCc3ccccc3)C2)cc1 (stereo unspecified) was read as Yeast UUG start -2.2, Env fusion inh -10.8, MT1-MMP act inh 0.2 and MT1-MMP act inh RFP 1.3.
Screening O=C(COc1ccc2ccc(=O)oc2c1)NC1CCS(=O)(=O)C1 (stereo unspecified) returned Yeast UUG start -8.9, Env fusion inh 7.8, CSC inhib -8.5, MT1-MMP act inh -0.5 and MT1-MMP act inh RFP -0.1.
`CCSc1nnc(-c2ccccc2N=Cc2c(C)[nH]n(-c3ccccc3)c2=O)c(=O)[nH]1` gave Rce1 inh inactive, Env fusion inh -2.7, PABP FP inh 16.6, CSC inhib 4.9, MT1-MMP act inh 5.9, eIF4H FP inh -9.6 and MT1-MMP act inh RFP 3.7.
CC(C)Nc1ncnc2c1cnn2-c1ccc(Cl)cc1 was read as Rce1 inh inactive, Yeast UUG start -31.9, Env fusion inh -39.1, PABP FP inh 2.5, CSC inhib 1.2, MT1-MMP act inh -1.5, eIF4H FP inh 2.6 and MT1-MMP act inh RFP -3.0.

Screening data as filed in PubChem BioAssay.

These rows are one share of the data (hit frequency here may not be typical).
